# TDP1 block = blocks human tyrosyl-DNA phosphodiesterase 1; Q9NUW8; recombinant TDP1, AlphaScreen DNA substrate cleavage; 0.28% of 350,000 active; Potency, µM (doses to about 130 µM), for inactives: at the highest dose activity change, negative = inhibition, actives largely listed as inhibitors; also: nearly all actives have a fitted effect of over 40% in size
# Target sequence (Q9NUW8 whole entry, looked up): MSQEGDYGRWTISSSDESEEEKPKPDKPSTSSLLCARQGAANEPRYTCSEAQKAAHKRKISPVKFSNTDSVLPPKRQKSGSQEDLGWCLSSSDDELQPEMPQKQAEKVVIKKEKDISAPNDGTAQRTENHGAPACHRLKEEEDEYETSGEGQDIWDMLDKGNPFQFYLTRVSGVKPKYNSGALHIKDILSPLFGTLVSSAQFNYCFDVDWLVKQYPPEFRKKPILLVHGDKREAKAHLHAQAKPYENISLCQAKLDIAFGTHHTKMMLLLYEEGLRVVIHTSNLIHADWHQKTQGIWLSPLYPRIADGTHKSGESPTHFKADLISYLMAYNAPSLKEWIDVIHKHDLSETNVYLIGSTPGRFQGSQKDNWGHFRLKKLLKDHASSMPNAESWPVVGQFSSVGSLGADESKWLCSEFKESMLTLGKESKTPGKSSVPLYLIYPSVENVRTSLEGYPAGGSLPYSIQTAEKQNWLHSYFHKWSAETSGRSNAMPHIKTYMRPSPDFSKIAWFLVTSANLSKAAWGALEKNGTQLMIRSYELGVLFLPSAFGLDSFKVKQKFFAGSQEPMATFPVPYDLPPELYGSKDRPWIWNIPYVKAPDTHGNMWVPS
#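 Recombinant human Tdp1 (E. coli-expressed, 1 nM final) preincubated with compounds 15 min at room temperature, then 5'-biotin/3'-phosphotyrosine-FITC DNA substrate (15 nM final) added for 5 min. AlphaScreen beads (10 ug/ml final) added 10 min; cleavage lowers signal.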
# FEN1 inh = inhibitors of human flap endonuclease 1; 0.35% of 390,000 active; Potency, µM (top dose mostly 114 µM), for the others: top-dose activity change, negative = inhibition, usual class: inhibitors; Recombinant FEN1 flap cleavage, fluorescence, 15 min; P39748; also: nearly all actives have a fitted effect of over 65% in size
# Target sequence (P39748 whole entry, looked up): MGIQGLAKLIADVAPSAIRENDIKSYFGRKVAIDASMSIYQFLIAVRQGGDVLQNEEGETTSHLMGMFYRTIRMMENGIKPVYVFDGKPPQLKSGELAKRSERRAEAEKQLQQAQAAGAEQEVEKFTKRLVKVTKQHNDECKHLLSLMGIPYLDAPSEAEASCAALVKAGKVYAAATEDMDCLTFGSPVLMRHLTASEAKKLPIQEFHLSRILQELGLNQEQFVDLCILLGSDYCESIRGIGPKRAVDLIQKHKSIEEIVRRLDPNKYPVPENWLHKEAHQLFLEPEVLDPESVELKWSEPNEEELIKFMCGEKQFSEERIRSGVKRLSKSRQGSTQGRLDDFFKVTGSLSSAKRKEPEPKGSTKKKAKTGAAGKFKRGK
#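 Potency values derive from four-parameter Hill fits of normalized qHTS data. The reaction used 10 nM FEN1 preincubated 15 min at room temperature with compound, then 50 nM DNA substrate, read at 0 and 15 min.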
# * marks the source's active call; other numbers are inactive results; · = no result given; & = joins results of further samples; [ ] = remark or other dose. Calls follow the shape of the dose curve; as a rule, active = well fitted inhibition curve with a large enough effect; inconclusive = small, poorly fitted or top-dose-only effect; inactive = no such curve, though single readings can be large or run the other way. % is scaled to controls: 0 for no effect and ±100 for the full control effect; potency is read from the fitted curve at half-maximal effect.
SMILES,TDP1 block,FEN1 inh
Cc1c(NS(=O)(=O)c2cc(Br)cc3c2N(C(=O)C2CC2)CC3)c(=O)n(-c2ccccc2)n1C,5%,7%
COc1ccc(S(=O)(=O)N2CCCCCC2)cc1N(C)S(=O)(=O)c1ccccc1,0%,-6%
CCCCOP(=O)(c1ccc(N(C)C)cc1)C(O)c1ccc(OC)cc1 (centres undefined),·,-3%
CCOc1cc2[nH]c(=S)n(CCCN(CC)CC)c(=O)c2cc1OCC,0%,-13%
CCc1[nH]nc2c1C1(CCN(C(=O)c3ccccc3)CC1)C(C#N)=C(N)O2,9%,3%
Cc1ccccc1C1CC(c2cccs2)Nc2nnnn21 (centres undefined),5%,-4%
Cc1ccc(S(=O)(=O)CCC(=O)Nc2nccs2)cc1,3%,-2%
CCOc1ccc(S(=O)(=O)Nc2cccc(C(=O)NCC3CCCO3)c2)cc1 (centres undefined),1%,-4%
CCOC(=O)Nc1ccccc1C(=O)N1CCOCC1,-1%,-17%
COc1ccccc1NCC(O)COc1ccc(C(C)(C)C)cc1 (centres undefined),4%,-22%
O=C1NC(=O)/C(=C\c2ccc(Oc3cnccn3)cc2)S1,8%,6%
CCN(CC(=O)NCc1ccc(F)cc1)C(=O)Cc1ccc(OC)cc1,9%,-2%
CC1Cc2ccccc2N1C(=O)CCn1c(=O)oc2ccccc21 (centres undefined),1%,1%
COc1ccccc1CN(CC(=O)NCC1CCCO1)C(=O)CNS(=O)(=O)c1ccc(C)cc1 (centres undefined),2%,8%
CC1=C([N+](=O)[O-])C(c2ccccc2Cl)NC(=O)N1C (centres undefined),·,21%
COc1ccc(Cl)cc1NC(=S)N1CC(C)OC(C)C1 (centres undefined),3%[56.1 µM],-18%
CCN1C2=NCCCN2c2ccccc21,-4%,-7%
Cn1c(=O)c2c3c(sc2n2cnnc12)CCC3,-2%,1%
O=C(CCSc1nc(-c2ccco2)cc(C(F)(F)F)n1)NCCN1CCOCC1,-2%,-1%
O=C1CC(N2CCN(c3ccccc3)CC2)C(=O)N1c1ccc2c(c1)OCCO2 (centres undefined),4%,-4%
COc1ccc(C(c2nnnn2Cc2cccs2)N2CCN(c3ccc(F)cc3)CC2)cc1OC (centres undefined),5%,-2%
COCCN(CCOC)C(=O)C1CCN(c2ccc(S(=O)(=O)N3CCOCC3)cc2[N+](=O)[O-])CC1,·,-2%
CCc1ccc(Nc2ccc(C(=O)O)cc2[N+](=O)[O-])cc1,·,3%
COc1cccc(NC(=O)CN2CCN(CC(=O)Nc3ccc(F)cc3)CC2)c1,·,-4%
COc1ccc(OC)c(CN(CCN2CCOCC2)C(=O)Nc2ccccc2)c1,3%,-9%
Cc1cccc(Nc2nc3c(s2)CCCC3)c1,2%,2%
CCOc1ccc(NC(=O)N(CCN(C)C)C(C)c2ccncc2)cc1 (centres undefined),1%,-1%
Cc1ccc(S(=O)(=O)CCC(=O)Nc2ccc(Br)cc2)cc1,·,-12%
CCCCCC(=O)Nc1ccc(-c2cn3cccnc3n2)cc1,3%,-6%
CCOC(=O)c1cc(CC)sc1NC(=O)CC1SC(N)=NC1=O (centres undefined),8%,-2%
Cc1ccc(-n2c(COc3cccc(C)c3)n[nH]c2=S)cc1,8%,39%[activator]
c1cncc(-c2nc(-c3cccs3)cs2)c1,0%,-1%
CCOc1ccccc1-c1nc(CN2CCCN(C(=O)c3ccco3)CC2)c(C)o1,2%,2%
COc1ccc(NC(=O)c2cc(-c3cc(Cl)ccc3O)n[nH]2)c(OC)c1,·,8%
CC(CCc1ccccc1)NC(=O)C1CCN(C(=O)c2sccc2-n2cccc2)CC1 (centres undefined),1%,-4%
CSc1ccc(CN2CCCCCC2)cc1,·,-7%
CCc1ccc(NC(=O)Cn2ncn3c(cc4ccccc43)c2=O)cc1,1%&3%,5%&2%
CCOC(=O)N1CCN(S(=O)(=O)c2ccc(OC)c3ccccc23)CC1,4%,-14%
Cc1cc(Nc2ccc(C)c(C)c2)c2ccccc2n1,·,-25%
Cc1nn(Cc2ccc(Cl)cc2Cl)c(C)c1NC(=O)CCl,2%,4%
CS(=O)(=O)c1ccc(Cl)c(NC(=O)c2ccc3ccccc3c2)c1,4%,8%
Cc1sc(NC(=O)CSc2nnc(CCNC(=O)c3cccs3)n2C)nc1-c1ccccc1,0%,-3%
CCN(c1ccccc1)S(=O)(=O)c1ccc(Cl)c(NC(=O)CSc2nncn2C)c1,0%,-1%
CCOc1ccc(C(=O)CCN2CCOCC2)cc1,6%,-10%
Cc1cccc(C(=O)Nc2nc(C)c(C(=O)Nc3ccc4c(c3)CCC4)s2)c1,12%,-4%
Cc1cc2nc(C)n(CCCNC(=O)Nc3ccc(C#N)cc3)c2cc1C,6%,3%
C=CCN1C(=O)c2ccc(C(=O)N(CC)CC(=O)Nc3cc(Cl)ccc3C)cc2C1=O,5%,2%
O=[N+]([O-])c1ccc(-c2nnc(CNC3CCCC3)o2)cc1,9%,2%
O=C(CN1CCCC1)N1c2ccccc2Sc2ccc(Cl)cc21,6%,-6%
CCNC(=O)CN(CCc1ccccc1)S(C)(=O)=O,5%,-3%

# (listing goes on)
SMILES,TDP1 block,FEN1 inh
CCCC(CCC)C(=O)NCCN1CCOCC1,2%,5%
CCN(CC)C(=O)C(=O)Nc1ccc(F)c(Cl)c1,0%,-5%
Cc1ccc(C(=O)NNC(=O)Cn2nnc3ccccc32)cc1,6%,14%
Cc1cc(CNC(=O)COc2ccc(F)cc2)c2ccccc2n1,3%,-10%
CCn1cc(C(=O)NCC(OC)OC)c(=O)c2cc(S(=O)(=O)N3CCC(C)CC3)ccc21,1%,-13%
CCOc1cc2[nH]c(=S)n(CCCN3CCCC3=O)c(=O)c2cc1OCC,9%,-19%
CCOC(=O)C1(CC2CCCCO2)CCN(S(=O)(=O)c2ccsc2)CC1 (centres undefined),1%,14%
COc1ccc(NC(=O)Cn2cnc3c(nnn3-c3ccc(C)cc3)c2=O)cc1,3%,·
CCn1c(SCC(=O)NC2CCCCC2)nnc1C(CO)NC(=O)c1ccccc1 (centres undefined),-13%,-2%
CCn1nc(CC(=O)Nc2ccc(-n3cnnn3)c(OC)c2)c2ccccc2c1=O,-5%,-1%
Cc1ccc(NC(=O)c2cc(C(=O)c3cc(Cl)ccc3O)cn(-c3ccc(C)cc3)c2=O)cc1,5%,4%
N=C(SC1CC(=O)N(c2ccc(F)cc2)C1=O)N1N=C(c2ccccc2)CC1c1ccccc1 (centres undefined),9%,-2%
COc1ccc(C)cc1NC(=O)c1ccc(-c2ccc(C(C)=O)cc2)o1,-2%,·
Cc1ccc(C(=O)Nc2ccccc2C(=O)N2CCCCC2C)cc1 (centres undefined),4%,-2%
COc1cc(OC)cc(C(=O)Nc2nnc(SCC(=O)NCc3ccco3)s2)c1,7%,4%
Cc1ccc(S(=O)(=O)N(CC(=O)NCc2ccco2)Cc2ccccc2F)cc1,8%,-14%
CCCCN1C(=O)C(CC(=O)NCC)SC1=Nc1ccccc1 (centres undefined),5%[56.1 µM],-1%
CC(C)NC(=O)CSc1nc2ccccc2c(=O)n1CCCOC(C)C,0%,-4%
Nc1c(N(CCO)C(=O)COc2ccc(Cl)cc2)c(=O)[nH]c(=O)n1Cc1ccccc1,1%,18%
CCc1c(C)nc2ncnn2c1NCc1cccs1,8%,5%
CCc1cccc(CC)c1N(COC)C(=O)Cn1ccccc1=N,5%,7%
CC12CCC3C(CCC4N(CCO)CCC34C)C1CCC2O (centres undefined),·,-3%
O=C(CCS(=O)(=O)c1ccc(Cl)cc1)Oc1ccc2c(c1)OCO2,-3%,-11%
C#CCN(C(=O)Nc1ccccc1)c1ccccc1,4%,-2%
FCCCOc1ccc(-c2nccc(-c3ccccn3)n2)cc1,·,-19%
Cc1[nH]c2ccccc2c1Cc1nnc(SCCC#N)o1,2%,6%
Nc1nncn1C(=O)c1ccc(Cl)cc1Cl,3%,-9%
CCOc1ccccc1NC(=O)CCCc1ccc(OC)c(C)c1,-9%,8%
Cc1ccc2c(C(=O)CN3CCN(C(=O)c4ccco4)CC3)c(C)[nH]c2c1,3%,-2%
O=C(CCNC(=O)c1ccc([N+](=O)[O-])cc1)NCCC1=CCCCC1,·,-6%
C=CCn1c(O)c2ccc(C(=O)N=NC(=O)COc3ccccc3F)cc2c1O,-1%,18%
O=C(CCCSc1nc(-c2ccco2)cc(C(F)(F)F)n1)NCc1cccs1,4%,-8%
O=C(COc1ccc(Cl)cc1)Nc1nc(-c2ccc(S(=O)(=O)N3CCOCC3)cc2)cs1,4%,6%
COC(=O)C1=CN(Cc2ccc(F)cc2)C=C(C(=O)OC)C1c1ccc(O)c(OC)c1,4%,6%
COc1ccc(/C=N/Nc2nc(-c3cccnc3)nc3ccccc23)c(OC)c1,2%,1%
CC(=O)NC1C(=O)N(CCc2ccccc2)c2ccccc21 (centres undefined),0%,10%
CNC(=O)C(C#N)(Cc1cc(C(C)=O)ccc1OC)Cc1cc(C(C)=O)ccc1OC,·,-2%
COC(=O)c1ccccc1-c1ccc(/C=N/NC(N)=O)o1,·,10%
O=C(CCN1CCN(C(=O)c2ccco2)CC1)Nc1ccc(F)cc1,1%,1%
C1=Nc2ccccc2CN1c1ccccc1,-1%,-3%
Cc1ccc(C(=O)N/C(=C\c2cccnc2)C(=O)N2CCCC2)cc1,7%,7%
O=c1c2sccc2nc(SCc2cc(=O)n3ccccc3n2)n1Cc1ccccn1,3%,·
Oc1ccccc1-c1nc2ccccc2nc1-c1ccccc1,6%,0%
N#CC1=C(N)Oc2n[nH]c(-c3ccccc3)c2C12C(=O)Nc1ccccc12 (centres undefined),0%,-8%
Cc1ccccc1NC(=O)C(=O)NC(C)CCc1ccccc1 (centres undefined),2%,-10%
Nc1ccc(Oc2ccc3c(c2)C(=O)NC3=O)cc1,·,-8%
NCCCCc1cn(CC(=O)N2CCNCC2)nn1,4%,2%
Cc1nc2ccccc2c(=O)n1NC(=O)c1cccnc1Cl,4%,-4%
O=c1c2c3c(sc2n2cnnc2n1C1CCCCC1)CCC3,2%,·
CC(=O)N1c2ccc(S(=O)(=O)N(C)CC(=O)N3CCCC3)cc2CC1C (centres undefined),5%,-4%

# A different layout for 15 compounds above.
compound	TDP1 block	FEN1 inh
O=C(COc1ccc(Cl)cc1)Nc1nc(-c2ccc(S(=O)(=O)N3CCOCC3)cc2)cs1	4%	6%
COC(=O)C1=CN(Cc2ccc(F)cc2)C=C(C(=O)OC)C1c1ccc(O)c(OC)c1	4%	6%
COc1ccc(/C=N/Nc2nc(-c3cccnc3)nc3ccccc23)c(OC)c1	2%	1%
CC(=O)NC1C(=O)N(CCc2ccccc2)c2ccccc21 (centres undefined)	0%	10%
CNC(=O)C(C#N)(Cc1cc(C(C)=O)ccc1OC)Cc1cc(C(C)=O)ccc1OC	·	-2%
COC(=O)c1ccccc1-c1ccc(/C=N/NC(N)=O)o1	·	10%
O=C(CCN1CCN(C(=O)c2ccco2)CC1)Nc1ccc(F)cc1	1%	1%
C1=Nc2ccccc2CN1c1ccccc1	-1%	-3%
Cc1ccc(C(=O)N/C(=C\c2cccnc2)C(=O)N2CCCC2)cc1	7%	7%
O=c1c2sccc2nc(SCc2cc(=O)n3ccccc3n2)n1Cc1ccccn1	3%	·
Oc1ccccc1-c1nc2ccccc2nc1-c1ccccc1	6%	0%
N#CC1=C(N)Oc2n[nH]c(-c3ccccc3)c2C12C(=O)Nc1ccccc12 (centres undefined)	0%	-8%
Cc1ccccc1NC(=O)C(=O)NC(C)CCc1ccccc1 (centres undefined)	2%	-10%
Nc1ccc(Oc2ccc3c(c2)C(=O)NC3=O)cc1	·	-8%
NCCCCc1cn(CC(=O)N2CCNCC2)nn1	4%	2%

# Later entries.
SMILES,TDP1 block,FEN1 inh
O=C(c1ccccc1)N1CCC(c2nc3c(nnn3Cc3ccccc3Cl)c(=O)[nH]2)CC1,6%,3%
CCOC(=O)c1cc(C(=O)NCc2ccc(Cl)cc2Cl)nn1C,-3%,-19%
O=C(COC(=O)c1ccc(F)cc1F)Nc1cc(S(=O)(=O)N2CCOCC2)ccc1Cl,0%,-7%
CCc1nnc(NS(=O)(=O)c2ccc(NC(=S)NC(=O)/C=C/c3cccs3)cc2)s1,7%,-1%
O=C(CCC(=O)OCC(F)(F)C(F)F)Nc1ccc(Cl)cc1,-2%,5%
CC(C(=O)NCc1ccco1)n1cc(C(=O)c2ccco2)c2ccccc21 (centres undefined),5%,-5%
CC(C)[C@H](Nc1ccc(S(=O)(=O)N2CCOCC2)cc1[N+](=O)[O-])C(=O)OCC(N)=O,3%,-10%
CCOC(=O)c1oc2ccccc2c1COC(=O)CNC(=O)c1cccc(C)c1,2%,-8%
COc1ccc(S(=O)(=O)N2CCCCCC2)cc1C(=O)N1CCCCC1,9%,4%
CC(C)(Cc1ccc(O)cc1)NC(=O)CC(=O)N/N=C/c1ccc([N+](=O)[O-])cc1,5%,-11%
C=CCOc1ccc(/C=C/C(=O)OCC(=O)NCc2cccs2)cc1,·,-3%
COc1ccc(CCNC(=O)CCC(=O)c2cccs2)cc1OC,·,-6%
CN(C)C(=O)CNc1n[nH]c(=S)[nH]c1=O,-1%,10%
CCCC(=O)NC(NC(=S)Nc1c(C)n(C)n(-c2ccccc2)c1=O)C(Cl)(Cl)Cl (centres undefined),3%,-4%
CC(=O)c1cccc(NC(=O)C(C)OC(=O)Cc2n[nH]c(=O)c3ccccc23)c1 (centres undefined),3%,5%

# Not all compounds are listed; most or all hits stand in other tables.
